Assay outcomes as filed in PubChem.
Calb FLC – C. albicans growth modulation with fluconazole; C. albicans CaCi-2 (fluconazole-resistant clinical isolate) + fluconazole, Alamar Blue growth, 48 h; growth inhibition, % (concentration not given with the values); 300,000 tested, 0.57% active;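 active means most replicates above 75%; inconclusive means exactly half above 75%; inactive means most below 75%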;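 further: all wells also contain fluconazole at 8 µg/ml as a sub-toxic cotreatment; 0% = median of DMSO wells and 100% = median of geldanamycin control wells; wells of about 8 µL received 7.5 nL stock; the first replicate is given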
B2AR ag – human beta-2 adrenergic receptor agonism by FAP; AID 504454; response, % (concentration not given with the values); Am2.2-beta2AR cells, FAP receptor internalization, flow cytometry; reference of the scale not given here; 340,000 tested, 0.43% active; P07550;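 active means response above a set limit, near 3 SD of response in nonfluorescent compounds, cut at about 42% in these data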;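 further: stock transfer was 100 nL into about 11 µL; a reference agonist was the positive control; negative values mostly stem from fluorescent compounds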
Target sequence (P07550 whole entry, looked up): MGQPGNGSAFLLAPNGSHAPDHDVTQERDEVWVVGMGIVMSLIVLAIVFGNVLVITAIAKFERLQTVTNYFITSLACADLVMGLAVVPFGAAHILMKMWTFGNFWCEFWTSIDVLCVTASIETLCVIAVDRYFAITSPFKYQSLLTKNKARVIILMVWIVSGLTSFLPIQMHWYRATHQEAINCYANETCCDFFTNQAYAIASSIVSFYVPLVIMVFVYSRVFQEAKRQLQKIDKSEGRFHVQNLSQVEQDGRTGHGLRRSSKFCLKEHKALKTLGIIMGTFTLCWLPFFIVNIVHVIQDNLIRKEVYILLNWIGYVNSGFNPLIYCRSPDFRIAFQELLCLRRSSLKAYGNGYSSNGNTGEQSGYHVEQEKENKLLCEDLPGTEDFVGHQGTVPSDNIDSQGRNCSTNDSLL
rRNA inh HTS – inhibitors of bacterial rRNA selective over humanized ribosomes; E. coli WT GFP vs humanized-ribosome RFP mutants, fluorescence, 24 h; active compounds read low; DMSO median 0, no signal -100; AID 720706; 350,000 tested, 1.6% active; GFP signal change (wild-type ribosome), % (no concentration beside the values);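 active means significant combined selectivity score with lowered wild-type GFP, culture density cut under 30%, mutant RFP and density less affected; inactive means any of these conditions unmet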; further: one replicate is shown; some compounds called inactive have numbers as strong as hits
Bfl-1 A1 inh – inhibitors of the anti-apoptotic protein A1, read as caspase activation; MEF A1-2A-BIM cells, Caspase-Glo 3/7 luminescence, 3 h; percent of clofoctol response, vehicle zero; caspase activation, % (test concentration not listed); 330,000 tested, 0.066% active; AID 2462;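 active means over half of replicate activation scores above 10%, or exactly half above 10 with the replicate mean above 10; inconclusive means replicate mean below 10 yet half the replicates above 10; inactive means over half of replicates below 10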;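 further: wells of about 30 µL received 50 nL stock; many hits fall short of the cut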
T cruzi repl – T. cruzi replication inhibition; T. cruzi beta-gal in NIH3T3, luminescence, 90 h; inhibition, % (no concentration beside the values); 300,000 tested, 1.4% active;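 active means mean inhibition across valid replicates above about 55%, limit read from the data; inconclusive means mean below that limit but half or more replicates reach it; inactive means mean below it, under half of replicates reach it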;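 further: signal also drops with host cell toxicity which is not excluded here; 0% = plate median of DMSO wells and 100% = zero luminescence signal; higher percent means less beta-gal luminescence so fewer parasites; stock transfer was 50 nL into about 50 µL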
ALR H2O2 inh – blocks human ALR sulfhydryl oxidase activity; AID 485317; 290,000 tested, 3.8% active; purified ALR, DTT oxidation, H2O2 HRP-luminol luminescence; inhibition, % (test concentration not listed);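 active means mean and each replicate at 75% or more; inconclusive means only one of the two met; inactive means neither met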;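 further: stock transfer was 7.5 nL into about 7.5 µL; 0% = neutral wells and 100% = wells with inactivated enzyme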
Target sequence (P55789 whole entry, looked up): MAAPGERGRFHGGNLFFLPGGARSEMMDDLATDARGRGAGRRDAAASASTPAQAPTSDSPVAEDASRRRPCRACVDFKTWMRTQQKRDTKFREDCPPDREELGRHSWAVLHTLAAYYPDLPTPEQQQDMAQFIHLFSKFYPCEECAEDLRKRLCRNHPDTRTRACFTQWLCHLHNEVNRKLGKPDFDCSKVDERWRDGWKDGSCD
Beta apoptosis – beta cell apoptosis inhibition; INS-1E cytokine-induced death, ATP luminescence, 48 h; percent of positive-control rescue, neutral wells zero; 300,000 tested, 0.8% active; protection from apoptosis, % (no concentration beside the values); AID 435005;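 active means all replicates at 75% or more, or half of them and the mean; inconclusive means half reach 75% but not the mean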;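 further: 0% = cytokine-treated negative control wells and 100% = positive control rescue; higher means more ATP so stronger rescue from cytokine killing; wells of about 40 µL received 100 nL stock; the first replicate is given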
LANA-H2A inh – blocks KSHV LANA binding to histone H2A/H2B. inhibition, % (test concentration not listed). Q9QR71. 320,000 tested, 0.6% active. cell-free LANA-H2A/H2B peptide, fluorescence polarization; in the data active means inhibition mostly above about 10%, no sharp cut-off; inactive means mostly below about 6.7%;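 further: stock transfer was 7.5 nL into about 10 µL; 0% = median of vehicle wells and 100% = median of positive control wells; one replicate is shown; the record names a cut of 25% in any replicate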
rRNA inh HTS OD600 – further read-out of rRNA inh HTS, marked with its call; OD600 change, %; measured here: OD600 growth;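 optical density of the mix in the first replicate; 0 = DMSO median and -100 = no signal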
rRNA inh HTS RFP – recorded beside rRNA inh HTS, whose call it bears; RFP signal change, %; measured here: RFP humanized mutant strains;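 first replicate; 0 = DMSO median and -100 = no signal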
* marks the source's active call; other numbers are inactive results; ? = inconclusive; / = no result given. Only part of the results is shown; count on the stated rates, not on these rows.

cpd	SMILES	LANA-H2A inh	rRNA inh HTS OD600	B2AR ag	rRNA inh HTS RFP	ALR H2O2 inh	rRNA inh HTS	T cruzi repl	Beta apoptosis	Calb FLC	Bfl-1 A1 inh
1	CNS(=O)(=O)c1cccc(C(=O)OCC(=O)Nc2ccc(-c3nc4ccc(C)cc4s3)cc2)c1	-2.7	/	2	/	-5	/	-18	6	7	-4.8
2	O=C(NC1CCCC1)C(c1ccc(F)cc1)N(C(=O)c1csnn1)c1ccccc1F (centres undefined)	-0.8	/	3	/	6	/	-13	-11	0	0.1
3	COc1ccccc1Nc1nc(C)cc(C)n1	-2.1	-3	-9	-19	-5	7	-8	/	-1	0.2
4	CCOc1ccc2nc(N3CCC(C(=O)N4CCN(C(=O)c5ccco5)CC4)CC3)sc2c1	-0.7	/	-11	/	9	/	5	9	-16	-0.3
5	Cc1nc(SCC(=O)N(C)C2CCCCC2)[nH]c(=O)c1Cc1ccccc1	-0.6	-20*	-2	5.8*	5	-26*	8	-2	21	-1.4
6	COc1ccc(-n2c(C)cc(-c3csc(N)n3)c2C)cc1	1.5	/	6	/	-8	/	8	13	-4	0.9
7	Cc1ccc(N2Cc3ccccc3C2=O)cc1	1.2	-9	-1	-5.0	/	-14	-4	19	-4	-8.1
8	Cc1cc(C)cc(OCC(=O)OCC(=O)N2CC(=O)Nc3ccccc32)c1	4.4	11	0	4.3	5	12	-12	0	3	-0.5
9	COc1ccc2[nH]c(C(=O)N3CCC(n4nccc4NC(=O)C4CC4)CC3)c(C)c2c1	4.9	2	-6	2.5	1	4	-11	2	-6	0.5
10	O=C(O)C1CCCN1S(=O)(=O)c1ccc2ccccc2c1 (centres undefined)	0.4	/	7	/	11	/	-5	-4	-6	0.1
11	CN1CC(=O)N(CC(=O)Nc2cccc(S(=O)(=O)N3CCOCC3)c2)C1=O	-2.8	14	-3	1.6	0	19	12	/	3	0.6
12	COc1ccc(C2COc3cc(O)ccc3C2)c(OC)c1O (centres undefined)	0.3	-8	-1	-11	1	-15	-7	-2	8	0.3
13	O=C(Nc1cccc([N+](=O)[O-])c1)c1ccc2nsnc2c1	-8.4	5	-4	-0.4	1	11	2	-1	-10	0.3
14	O=C(Nc1nnc(CCN2CCOCC2)s1)c1ccccc1	6.1	5	-7	-3.0	0	-2	-12	-3	8	/
15	CCOC(=O)c1c(C)nc2ccccc2c1C	4.9	/	-17	/	/	/	-7	2	9	0.1
16	COc1cc(OC)c(NC(=O)c2sc3ncn(CC(=O)N4CCN(c5ccccn5)CC4)c(=O)c3c2C)cc1Cl	-15	11	-1	0.7	-7	-3	-14	-2	6	2.6
17	COC(=O)c1ccc(N2CCN(S(=O)(=O)c3ccc(C)cc3)CC2)c([N+](=O)[O-])c1	0.8	/	12	/	-9	/	-12	-2	5	0.8
18	CCC(=O)NC(c1cc(Cl)c2cccnc2c1O)C(C)C (centres undefined)	1.5	-11	6	4.6	-14	-5	/	105*	/	0.2
19	COc1ccccc1/C=N/NC(=O)c1cc2c(OC)c(OC)ccc2[nH]1	3.0	11	7	0.5	-3	2	-14	8	-7	2.2
20	CCOc1ccc(NC(=O)c2ccc(Cn3nc(C)cc3C)o2)cc1	-4.9	-15	6	1.6	-1	-9	11	-3	0	-0.8
21	CN(C)c1ccnc(-n2cccc2/C=N/OCc2ccc(F)cc2Cl)c1C#N	-2.9	/	-4	/	-11	/	45	3	-4	0.1
22	CC(C)CN(C(=O)C1=NN(c2ccccc2)C(=O)CC1)c1c(N)n(Cc2ccccc2)c(=O)[nH]c1=O	-162	/	-2	/	2	/	/	-2	/	-0.4
23	CCN(CC)CC(=O)Nc1cccc2c1C(=O)c1ccccc1C2=O	7.3	/	-7	/	-7	/	32	6	19	0.0
24	COC(=O)COn1c(SC(C)C)nc2ccccc2c1=O	3.3	-8	2	-8.4	60	2	-14	0	5	0.3
25	CC1O[C@@H]2O[C@](O[C@H](C)CC[C@@H](C)O)(c3ccccc3)O[C@@H]2C[C@H]1O (some centres undefined)	-2.1	22	-3	4.4	3	16	-13	-14	-3	0.8
26	CC(=O)Nc1ccc(Nc2c3ccccc3nc3ccccc23)cc1	-0.8	-9	51*	4.9	90*	-8	60*	89*	111*	0.0
27	COc1cccc(CNC(=O)CN(C)S(=O)(=O)c2ccc3c(c2)CC(C)N3C(C)=O)c1 (centres undefined)	-1.7	-6	2	0.1	-1	-4	17	-1	-3	0.0
28	O=C(Nc1ncc2c(n1)-c1ccccc1CC2)c1ccccc1	3.0	/	-7	/	/	/	0	-14	28	1.2
29	Cc1cc(C(=O)N/N=C/c2ccc(N(C)C)o2)cs1	2.3	3	-8	-1.8	-22	2	-30	-1	3	0.0
30	O=C(Cc1ccccc1)NCC(=O)Nc1cccc(Br)c1	5.2	7	3	-6.0	49	5	-24	2	7	0.6
31	O=c1[nH]cccc1-c1nc2ccccc2n1Cc1ccc(F)cc1	2.5	-7	-2	-0.1	-10	-5	-12	-3	-1	1.8
32	CCN(CC)c1ccc(CNc2ccc(Br)cn2)cc1	-1.0	/	-1	/	/	/	6	-1	-19	1.8
33	CCOC(=O)c1cccc(C(=O)OCC)n1	1.4	/	1	/	1	/	-10	-4	-8	0.6
34	CCCc1nnc(NS(=O)(=O)c2ccccc2)s1	-3.1	-12	0	8.8	-12	-7	12	-4	8	0.1
35	COCCCNc1nc2ccccc2nc1NS(=O)(=O)c1cccc(C)c1	2.1	-10	-5	-0.3	12	-10	6	-2	11	0.4
36	CCOC(=O)c1c(O)c2cc(Cl)ccc2n(CC)c1=O	0.8	-10	2	-6.3	1	-14	-45	-10	28	-0.4
37	CS(=O)(=O)N1CCc2cc(C(=O)N3CCCC3)ccc21	-5.6	6	-10	-7.6	-5	13	-8	-1	1	-0.6
38	Cc1ccc(S(=O)(=O)N2CCC(=O)N(CCOC(=O)NCc3ccccc3)CC2)cc1	-3.8	1	/	0.9	42	8	/	-7	/	0.6
39	Cc1cccc(COc2ccc(/C=C3/C(=O)N(C)C(=S)N3C)cc2)c1	1.8	4	4	4.4	-5	6	9	0	-7	0.5
40	CCCN(CCC)S(=O)(=O)c1cccc(C(=O)Nc2ccc3c(c2)OCO3)c1	-0.1	/	5	/	1	/	1	-3	?	0.0

Part of the list above, limited to B2AR ag and rRNA inh HTS:
| No. | canonical_smiles | B2AR ag | rRNA inh HTS |
| --- | --- | --- | --- |
| 4 | CCOc1ccc2nc(N3CCC(C(=O)N4CCN(C(=O)c5ccco5)CC4)CC3)sc2c1 | -11 | / |
| 14 | O=C(Nc1nnc(CCN2CCOCC2)s1)c1ccccc1 | -7 | -2 |

The listing continues.
cpd	SMILES	LANA-H2A inh	rRNA inh HTS OD600	B2AR ag	rRNA inh HTS RFP	ALR H2O2 inh	rRNA inh HTS	T cruzi repl	Beta apoptosis	Calb FLC	Bfl-1 A1 inh
41	CCN(CCCNC(=O)COc1cc(=O)n(C)c2ccccc12)c1cccc(C)c1	-1.4	/	-19	/	98*	/	26	3	10	1.6
42	COc1cc(-c2[nH]ncc2CN2CCN(Cc3cccs3)CC2)cc(OC)c1OC	7.0	6	3	1.8	3	3	16	3	2	-0.3
43	COc1ccccc1NC(=O)c1cc(-c2ccc(OC)c(OC)c2)nc2ccccc12	/	5	-12	5.9	/	6	3	/	1	/
44	COc1ccc(NC(=O)CSc2cc(C(=O)c3nccn3C)c3ccccc3n2)cc1	-1.8	-2	-9	-0.5	-16	0	12	2	18	0.1
45	CC(=O)Nc1ccc(NS(=O)(=O)c2ccc3ccccc3c2)cc1	-0.5	/	0	/	-15	/	-8	-4	0	-1.0
46	COCc1cc(C)n(CC(=O)Nc2ccccc2C(=O)OC)c(=O)c1C#N	-2.7	/	1	/	-7	/	-13	/	25	0.5
47	O=S(=O)(NCCO)c1cccc2cccnc12	-2.0	13	-3	3.5	70	7	-9	/	-3	-0.1
48	O=c1[nH]ncn1-c1ccccc1C(F)(F)F	-0.4	/	-2	/	-3	/	-10	0	-32	-0.2
49	Cc1ccc(C(=O)OCc2nnc(-c3ccccc3)o2)cc1S(=O)(=O)N1CCOCC1	9.6	-24	0	-0.1	/	-8	-6	/	2	0.7
50	Cc1ccc2nc(SC(C)C(=O)NCc3ccco3)[nH]c2c1 (centres undefined)	4.5	/	-4	/	-3	/	-2	-8	3	-0.3
51	CCCOc1ccc(C(=O)Nc2ccc(CN3CCOCC3)cc2)cc1	-2.0	7	6	0.2	-4	2	-5	-4	0	0.5
52	Clc1cccc(/C=N/Nc2ncnc3ccccc23)c1	-0.7	/	-1	/	9	/	-1	3	6	-1.8
53	Cc1noc(C)c1C(=O)OCC(=O)Nc1ccc(N2CCOCC2)cc1	2.7	8	-1	-0.6	-3	6	/	1	/	-0.3
54	COC(=O)/C=C1\SC(=NC(=O)c2cccc([N+](=O)[O-])c2)NC1=O	2.9	3	13	-0.9	/	-8	-10	2	-2	0.3
55	Cc1ccccc1C(=O)NCC(=O)OC(C)C(=O)Nc1cccc(S(=O)(=O)N2CCOCC2)c1 (centres undefined)	-1.5	2	4	-0.2	-4	6	-7	-1	-4	1.9
56	COc1cc(/C=N/NC(=O)COc2ccccc2C)ccc1OC(=O)c1cccs1	2.8	/	10	/	16	/	-16	2	-7	0.0
57	C/C(CC1CC(COCC(C)C)OC1=O)=N\NC(N)=S (centres undefined)	1.5	12	19	9.4	17	15	0	-4	5	0.7
